Source: PubChem BioAssay (National Center for Advancing Translational Sciences (NCATS))
RE007 growth inh – less growth of the S. pombe RE007 Vpr strain; S. pombe RE007 Vpr strain, BacTiter-Glo ATP luminescence, 24 h; control for the full effect not named in the record; Potency, µM (highest dose often 92.2 µM), for inactives: at the highest dose activity change, negative = less growth; 360,000 compounds, 0.21% hits; active = well fitted falling curve with a large enough effect; inconclusive = small, poorly fitted or top-dose-only effect; inactive = no such curve, though single readings can be large or run the other way;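 further: nearly all actives have a fitted effect of over 50% in size; the assay follows cell death caused by Vpr and the record does not say whether a fall means rescue or toxicity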
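Fission yeast RE007 carrying one integrated HIV-1 vpr copy, seeded at OD 0.01 in PMG+AL medium with 23 nL pinned compound. Grown 24 h at 30 degrees; viability read by BacTiter-Glo luminescence after 5 min.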
2A StopGo – FMDV 2A StopGo reporter, luciferase signal; human cells with a luciferase reporter of 2A StopGo recoding; control for the full effect not named in the record; Potency, µM (doses to about 57.9 µM), for the others: at the highest dose signal change, negative = less light; 410,000 compounds, 1.2% hits; AID 1159524; active = well fitted falling curve with a large enough effect; inconclusive = small, poorly fitted or top-dose-only effect; inactive = no such curve, though single readings can be large or run the other way; tested in HEK293T cells; further: nearly all actives have a fitted effect of over 45% in size; luciferase light after 4 h
Starred values were filed as active, the others as inactive; ? = inconclusive; [ ] = another dose, or the depositor's remark. On the % scale 0 is the no-effect control and ±100 the full control effect; potency means the concentration at half of the fitted maximal effect.

Compound	2A StopGo	RE007 growth inh
COCCCNC(=O)c1cccc2c(-c3ccnn3C)coc12	-1.6%	-8.9%
COc1ccccc1C(NC(=O)C1CCN(CCOc2ccc(Cl)cc2)CC1)c1ccccn1 (stereo not drawn)	-5.5%	-3.0%[18.4 µM]
Cc1ccc(Cc2c(-c3ccccc3)nc3ccc(Br)cn23)cc1	0.0%	-4.5%
CCCC[C@@H]1CN=C(N)N1CC(C)(C)C	-13.3%	?
CC(=O)NC(c1cccc(F)c1)c1nc(-c2cnn(C)c2)cs1 (stereo not drawn)	0.0%	3.4%
CCc1nc2c(OCc3cc(Cl)cc(Cl)c3)cccn2c1N(C)C(=O)c1cccc(OC)c1	-26.7%	-9.5%
COc1ccc(CN(C)CCCn2ccc(NC(=O)OCc3ccccc3)nc2=O)cc1OC	-16.4%	-2.6%
COc1cccc(C(NC(C)=O)c2nc(-c3cccnc3)cs2)c1 (stereo not drawn)	-27.8%	4.2%
N#CCCn1cc(C(=O)CN2C(=O)NC3(CCc4ccccc43)C2=O)c2ccccc21 (stereo not drawn)	-6.5%	4.3%
COc1ccc(C(C)(O)c2nc(-c3ccc4ccccc4c3)cs2)cc1 (stereo not drawn)	-8.1%	-0.3%
CC(=O)NC(c1ccccc1)c1nc(-c2cccc(C(C)C)c2)cs1 (stereo not drawn)	-22.8%	3.5%
O=C(NCC1=C(c2ccc3ccccc3c2)C[C@@H]2CC[C@H]1N2Cc1ccco1)c1cccs1	-11.2%	-3.7%
COc1ccccc1-c1cnc(C(O)c2cc(C)c(OC)c(C)c2)[nH]1 (stereo not drawn)	-26.4%	-15.0%[18.4 µM]
N#CCCCc1cn(-c2nc3ccccc3s2)nn1	23.8%	-3.9%
C[C@@H]1CN([C@H](C)CO)C(=O)CCCn2cc(nn2)CO[C@H]1CN(C)C(=O)c1ccc2ccn(C)c2c1	-8.6%	9.0%

Retrieved by compound from above, 4 records:
Compound	2A StopGo	RE007 growth inh
CCCC[C@@H]1CN=C(N)N1CC(C)(C)C	-13.3%	?
N#CCCn1cc(C(=O)CN2C(=O)NC3(CCc4ccccc43)C2=O)c2ccccc21 (stereo not drawn)	-6.5%	4.3%
CC(=O)NC(c1cccc(F)c1)c1nc(-c2cnn(C)c2)cs1 (stereo not drawn)	0.0%	3.4%
COc1ccccc1-c1cnc(C(O)c2cc(C)c(OC)c(C)c2)[nH]1 (stereo not drawn)	-26.4%	-15.0%[18.4 µM]

Next structures follow.
Compound	2A StopGo	RE007 growth inh
CN(C(=O)c1cccc(NC(=O)Cc2cccc(NC(=O)C3CCN(C(=O)C4CCCC4)CC3)c2)c1)C1CCC1	-14.2%	2.4%
CCC(CC)C(=O)N(C)c1c(C)nc2c(OCC3CCCCC3)cccn12	0.0%	-15.8%
O=C(C[C@H]1C(=O)N(C2CCCCC2)C[C@@H]1c1ccccc1)Nc1ccc(Br)cc1	-17.7%	-21.1%
CCOC(=O)C1=CCN(S(=O)(=O)c2ccccc2C)C1c1ccc(Cl)c(Cl)c1 (stereo not drawn)	-22.0%	-27.0%
COc1ccc(Cc2c(C(C)(C)C)nc3ccc(Cl)cn23)c(C)c1	-11.5%	5.8%
CC1(C(=O)NCc2ccccc2)CSCC(=O)N1CCCN1CCOCC1 (stereo not drawn)	-7.6%	0.0%
CC1=C(C(=O)OCc2ccccc2)C(c2ccc(Br)cc2)NC(=O)N1CCCCCC(=O)O (stereo not drawn)	-22.6%	-6.2%
Cc1ccc(S(=O)(=O)N2C[C@H]3n4c(=O)ccc(=O)n4C[C@H](OC(=O)Nc4c(C)noc4C)[C@@]3(O)C2)cc1	-21.5%	-1.3%
CCN(CC)c1c(C)nc2ccc(C(=O)Nc3cc(-c4ccccc4)ccc3OC)cn12	-23.7%	-10.0%[18.4 µM]
CCCNC(=O)c1cc(C2CCCCN2S(=O)(=O)c2ccccc2)on1 (stereo not drawn)	-13.1%	13.7%
CC1(C(=O)Nc2cnc3ccccc3c2)CCN1C(=O)CCc1ccccc1 (stereo not drawn)	0.5%	-19.1%
COC(=O)c1ccc2nc(-c3cccc(Br)c3)c(Cc3cccc(F)c3)n2c1	?	12.9%
C=C1c2c(Cl)ccc(O)c2C(O)=C2C(=O)[C@]3(O)C(O)=C(C(N)=O)C(=O)[C@@H](N(C)C)[C@@H]3[C@@H](O)C12 (stereo partly drawn)	?	0.8%
CC1=C2C3OC(=O)C(C)C3CCC2(C)C=C(Cl)C1=O (stereo not drawn)	-24.3%	-7.4%
COc1cc(CNC(=O)Nc2cccn3nc(COCCO)nc23)cc(OC)c1OC	-3.7%	-3.1%
CCc1nc2ccc(C(=O)Nc3cc(-c4ccccc4)ccc3OC)cn2c1N(C)Cc1ccc(Cl)cc1	-20.8%	-6.9%
C[C@@H]1CN([C@@H](C)CO)C(=O)c2cc(Br)cnc2O[C@@H]1CN(C)Cc1cncnc1	-7.0%	15.1%
COCCNC(=O)C1(C)Cc2c(-c3cccc(C(N)=O)c3)ccnc2O1 (stereo not drawn)	-0.5%	1.5%[18.4 µM]
Cn1c(=O)c2cc(NC(=O)NCCc3cccs3)ccc2n1-c1ccc(C(C)(C)C)cc1	-4.8%	11.5%
ClC(Cl)(Cl)C1=NCc2nnn(Cc3ccccc3)c2N1	-3.3%	1.5%
O=C(O)C[C@H]1c2ccccc2S(=O)(=O)N1C1CCCC1	-18.7%	17.4%
CC1(C(=O)NCc2ccc(F)c(F)c2)Cc2c(-c3ccccc3)ccnc2O1 (stereo not drawn)	-21.8%	-9.9%
Cc1cccc(-c2cnc(C(O)Cc3ccccc3)[nH]2)c1 (stereo not drawn)	32.8%[activator]	-12.0%
C[C@@H]1CN([C@H](C)CO)C(=O)c2cc(C#CC3CC3)cnc2O[C@H]1CN(C)S(C)(=O)=O	-14.7%	-9.9%
Cc1ccc(S(=O)(=O)N(C)C[C@@H]2OCc3ccccc3-c3c(n(C)c4ccccc34)C(=O)N([C@H](C)CO)C[C@@H]2C)cc1	-12.8%	-4.8%
Cc1cccc(C)c1NC(=O)C(C1CC1)n1c(=O)c(-c2ccccc2)nc2ccccc21 (stereo not drawn)	-4.0%	-1.0%
CCCC1NC(=O)c2cc3ccccc3cc2-n2c1nc1cc(F)ccc1c2=O (stereo not drawn)	?	11.1%
Cc1ccc(N2CCN(C3C(=O)Nc4ccccc4-n4nnnc43)CC2)cc1 (stereo not drawn)	-17.5%	0.8%
C=CC[C@]12C=C(OC)C(=O)C=C1O[C@@H](c1ccc3c(c1)OCO3)[C@H]2C	-16.4%	-5.1%
Cc1cc(C)nc(NS(=O)(=O)c2ccc(NCN3C(=O)c4ccccc4C3=O)cc2)n1	84.7%[activator]	-9.4%
CC(=O)Nc1ccc(C(C#N)=Cc2ccc(N(C)CCC#N)cc2)cc1	1.2%	-15.5%
COc1cccc(C(=O)NCC2CCCN(C(=O)Cc3cccc(C)c3)C2)c1OC (stereo not drawn)	-3.7%	5.0%
CCN1C[C@@]2(COC)C3[C@@H](OC)[C@H]4[C@@H]1[C@@]3(C1C[C@H]3[C@H](OC(=O)c5ccccc5)C1[C@]4(OC(C)=O)C[C@H]3OC)[C@@H](OC)C[C@H]2O (stereo partly drawn)	-22.9%	-13.7%
Cc1ccc(C2(C)NC(=O)N(CC(=O)Nc3cc(S(=O)(=O)N4CCOCC4)ccc3OC(C)C)C2=O)cc1 (stereo not drawn)	7.6%	-5.2%
COc1ccc(CCN2CCC(CN3C(=S)NC[C@@H]3CC(C)C)CC2)cc1OC	-9.1%	-22.6%
C[C@H]1CN[C@@H](CCO)/C1=C\c1ccccc1	-11.4%	4.7%
COc1ccc(C(=O)NC(=S)Nc2ccc3[nH]c(=O)[nH]c3c2)cc1Br	?	-3.7%
CCOC(=O)c1ccc(Nc2ccc(C(C)=O)cc2)cc1	51.3%[activator]	-24.7%
N#Cc1ccc(S(=O)(=O)N2CCN(C(=O)c3cn(-c4ccccc4)nc3-c3cccnc3)CC2)cc1	?	19.2%
Cc1ccc(CNC(=O)CSc2nnc(CNC(=O)c3ccc(F)cc3)o2)cc1	-13.2%	-2.5%
CN(CC(=O)Nc1ccc(F)c(F)c1F)C(=O)Cc1ccc(S(=O)(=O)N2CCOCC2)s1	-6.5%	3.1%
COc1cc(NC(=O)CC[C@H]2O[C@@H](n3cnc4c(NC(=O)c5ccccc5)ncnc43)[C@H](O)[C@@H]2O)cc(OC)c1OC	-5.5%	3.5%
COC(=O)c1ccc(Cn2c(C)c(C(=O)NCc3ccco3)sc2=O)o1	-15.8%	?
CCOC(=O)C1CCC(C(=O)OCC)N1c1ccc(C=O)cc1 (stereo not drawn)	-12.9%	-0.7%
CN(C)c1cccc(CNC(=O)c2ccc3nc([C@H]4C[C@H](O)[C@@H](CO)O4)[nH]c3c2)c1	-10.0%	0.3%
CC1(C)C(=Cc2ccccc2)C(=O)c2ccccc21	44.0%[activator]	-2.8%
COc1ccc(OC)c(CN2C(=O)CN(S(C)(=O)=O)CC2(C)C(=O)Nc2c(C)cccc2C)c1 (stereo not drawn)	-2.8%	0.0%
CC(C)C(N)c1csc(Nc2ccc(C(F)(F)F)cn2)n1 (stereo not drawn)	15.8%	-5.3%
NC(c1csc(Nc2ncccn2)n1)c1ccccc1Cl (stereo not drawn)	-9.9%	-7.2%[18.4 µM]
CCOC(=O)C1(C)CCN1C(=O)c1cc(C)oc1C (stereo not drawn)	-8.9%	-2.5%[18.4 µM]
Cc1cccc(CNC(=O)c2sc(=O)n(Cc3ccc(S(C)(=O)=O)cc3)c2C)c1	-28.1%	0.6%[18.4 µM]
COCCCn1c(C(=O)Nc2ccc3c(c2)OCO3)cc2c(=O)n3cccc(C)c3nc21	?	-3.7%
O=C1C(CCc2ccccc2)ON=C(c2cnccn2)N1Cc1ccc(F)cc1 (stereo not drawn)	-14.9%	25.0%[18.4 µM]
CCC/C=C1/CCCOC(C(=O)NCCN2CCOCC2)(C(F)(F)F)C1 (stereo not drawn)	-11.5%	-4.7%
CC1(C(=O)NS(=O)(=O)c2cccc(C#N)c2)CCN1C(=O)CCc1ccccc1 (stereo not drawn)	-8.4%	16.4%
CS(=O)(=O)N1CCCCC1c1cc(C(=O)Nc2ccc3c(c2)OCO3)no1 (stereo not drawn)	47.9%[activator]	2.5%
O=C(Nc1ccc(Cl)c(C(F)(F)F)c1)C1Cc2c(-c3ccc4c(c3)OCO4)ccnc2O1 (stereo not drawn)	?	-4.3%
Cc1ccc(CN2CCN(CCCn3cnc4c(OCc5ccccc5)ncnc43)CC2)cc1	?	-14.8%
C=CCOc1cccc(C(=O)N(C)C2CCCN(Cc3ccccc3F)C2)c1 (stereo not drawn)	1.6%	10.9%
c1ccc(C2c3ccccc3-n3nncc3CN2CC2CCCCC2)cc1 (stereo not drawn)	?	7.5%

Following part
Compound	2A StopGo	RE007 growth inh
O=C(NCCN1CCCC(O)C1)c1cc(COc2cccc(C(F)(F)F)c2)on1 (stereo not drawn)	-23.0%	20.6%
CC1=C(C(=O)N(C(C)C)C(C)C)CC(CC(=O)NCCN2CCOCC2)C(=O)N1Cc1ccc(C(C)(C)C)cc1 (stereo not drawn)	-17.9%	-12.7%
O=C(NCCNc1ccc([N+](=O)[O-])cc1)c1cc(F)c(F)cc1Cl	-25.4%	-11.1%
O=C(Nc1cccc(Oc2ccccc2)c1)C1Cc2c(-c3ccco3)ccnc2O1 (stereo not drawn)	-18.5%	10.5%
CN1OC[C@@H]2CN(S(=O)(=O)c3ccccc3)[C@H](c3ccc(-n4ccnc4)cc3)C[C@@H]21	-7.4%	-2.1%
CC(=O)Nc1cc(-c2ccc(C(=O)N3CCOCC3)cc2)cn2c(-c3ccc(F)cc3)cnc12	?	2.9%
NC(=O)c1cccc(-c2ccnc3c2CC(C(=O)NCCc2ccccc2)O3)c1 (stereo not drawn)	-5.8%	-8.9%[18.4 µM]
COC(=O)CCC(C)C1CCC2C3CCC4CC(O)CCC4(C)C3CC(O)C12C (stereo not drawn)	?	-20.3%
COc1c2ccoc2nc2c(OC)c(OC[C@@H](O)C(C)(C)O)ccc12	-13.2%	-3.9%
Cc1ccccc1NC(=O)C(C)OC(=O)C1CCCO1 (stereo not drawn)	1.2%	10.3%
CC(NC(=O)C1CCN(Cc2ccc(Oc3ccccc3)cc2)CC1)c1cccc2ccccc12 (stereo not drawn)	-11.1%	-26.0%
COc1ccc(C2=Nc3ccccc3NC(=O)C2N(Cc2ccc(F)cc2)C(=O)c2ccco2)cc1 (stereo not drawn)	21.8%	-6.3%
CC1CCCN(S(=O)(=O)c2ccc3c(c2)OCCO3)C1 (stereo not drawn)	-9.3%	-6.3%
CC(C)c1cc(C(=O)NCc2ccc(F)cc2)c(N)s1	-2.9%	7.1%
C=CCN(c1ccc(F)cc1)S(=O)(=O)c1cc(C(=O)NC2CC2)ccc1Cl	?	-15.4%
Cc1noc(C)c1NC(=O)Nc1ccc2c(c1)C(=O)N([C@H](C)CO)C[C@H](C)[C@@H](CN(C)S(=O)(=O)c1ccc(Cl)cc1)OCCCC[C@@H](C)O2	0.0%	-0.1%

This is a subset; the hit share may differ from the screen's.
